ClpP mod: qHTS Assay for Activators of ClpP. actives 1.9% (n = 340,000). ATP-dependent Clp protease proteolytic subunit (Bacillus subtilis (strain 168)), P80244. Potency, µM (titrated, usually from 57.5 µM), for inactives: at the top dose activity change, negative = active. purified B. subtilis ClpP, FRET peptide cleavage, 20 min; active = well fitted falling curve with a large enough effect; inconclusive = small, poorly fitted or top-dose-only effect; inactive = no such curve, though single readings can be large or run the other way; further: potency means the concentration at half of the fitted maximal effect; the source files actives as falling curves though it sought activators and does not explain the sign; nearly all actives have a fitted effect of over 65% in size; many hits overshoot -100%
Target sequence (P80244 whole entry, looked up): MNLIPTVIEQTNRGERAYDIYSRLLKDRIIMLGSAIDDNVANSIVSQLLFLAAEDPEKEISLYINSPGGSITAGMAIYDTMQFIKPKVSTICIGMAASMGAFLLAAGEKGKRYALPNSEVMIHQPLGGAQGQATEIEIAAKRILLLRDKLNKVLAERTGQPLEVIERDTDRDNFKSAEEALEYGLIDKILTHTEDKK
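Purified B. subtilis ClpP, 10 microg/mL final in Tris/HCl pH8 with KCl, BSA, glycerol and Tween-20, cleaved an Abz/nitrotyrosine-quenched decapeptide. Fluorescence (ex 320, em 430) was read at 0 and 20 min at room temperature. Delta was normalized to 5.8 microM ADEP and DMSO/no-enzyme controls.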
gsp ag: activates gsp, the McCune-Albright syndrome mutation | actives 0.13% (n = 340,000) | Potency, µM (titrated, usually from 76.9 µM), for inactives: at the highest dose activation (cAMP increase), actives largely listed as activators | gsp mutant cells, cAMP HTRF, 30 min; control for the full effect not named in the record; active = well fitted activation curve with a large enough effect; inconclusive = small, poorly fitted or top-dose-only effect, or another doubt; inactive = no such curve, though single readings can be large or run the other way; cell line not stated here;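 further: phosphodiesterase inhibitor Ro 20-1724 added with compounds to block cAMP breakdown; potency means the concentration at half of the fitted maximal effect; nearly all actives have a fitted effect of over 60% in size; about a fifth of the inactives were tested at one dose only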
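Cells in DMEM/10% FBS with G418 were pretreated with compounds in DMSO plus […] (300 uM stock) for 30 min at 37C. cAMP was measured by HTRF (cAMP-d2 plus anti-cAMP antibody-K) after 30 min at room temperature.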
CtBP-E1A inh: inhibitors of CtBP/E1A interaction; AlphaScreen GST-E1A/His-CtBP binding, 1536-well; hits give low values; control for the full effect not named in the record; activity change, % (concentration not given with the values); actives 0.49% (n = 340,000); in the data active means activity change below about -65%; inconclusive means about -30% to -65%; inactive means above about -30%; further: on the % scale 0 is the no-effect control and ±100 the full control effect
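Steps: dispense buffer (Tris pH 8.0, NaCl 300 mM, TCEP 1 mM, BSA, Tween 20); add 5X protein mix (GST-E1A, His-CtBP, 125 nM each); pin 23 nL compound; 2 h at 37 °C, dark; add 5X beads (50 ug/mL); 1 h; read.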
Sfp inh: blocks B. subtilis Sfp PPTase activity. Q9F4F7. Biochemical Sfp PPTase activity, qHTS. Potency, µM, inactives show max response, negative = inhibition, actives largely listed as inhibitors. actives 3.5% (n = 310,000); active means well fitted inhibition curve with a large enough effect; inconclusive means small, poorly fitted or top-dose-only effect, or another doubt; inactive means no such curve, though single readings can be large or run the other way;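 further: the enzyme is Sfp with the accession as filed and its product quenches rhodamine fluorescence; potency means the concentration at half of the fitted maximal effect; 0% = enzyme reaction without inhibitor and -100% = no enzyme wells; top concentration of the series not given in the record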
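Buffer: 50 mM Hepes-Na pH 7.6, 10 mM MgCl2, 0.01% Nonidet P-40, 0.01% BSA. Enzyme 15 nM, pre-exposed to compound 15 min; substrates then added and fluorescence change tracked over 30 min.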
Menin MLL FP FL: displaces fluorescein MLL peptide from human menin; Fluorescence polarization, fluorescein-MLL peptide displacement from menin; FP activity change, % at 61.4 µM; 290,000 tested, under 10 active; inconclusive = falling polarisation curve, or a change in total fluorescence; inactive = total fluorescence flat and polarisation flat or rising; no compound was filed as active; the % refers to the polarisation; negative = inhibition;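 further: % of control where 0% means no effect; inhibitors lower the polarisation; unlabelled MLL peptide was the positive control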
TRPV1 potentiator: human TRPV1 potentiation; Q8NER1; TRPV1-expressing cells, Fluo-8 calcium influx, capsaicin EC20 potentiation; host cell line not named in the record; control for the full effect not named in the record; potentiation, % at 8.33 µM; actives 0.02% (n = 320,000); AID 540277; active means potentiation above 80%; inconclusive means 30% to 80%; inactive means below 30%; further: 0% is about no effect
Target sequence (Q8NER1 whole entry, looked up): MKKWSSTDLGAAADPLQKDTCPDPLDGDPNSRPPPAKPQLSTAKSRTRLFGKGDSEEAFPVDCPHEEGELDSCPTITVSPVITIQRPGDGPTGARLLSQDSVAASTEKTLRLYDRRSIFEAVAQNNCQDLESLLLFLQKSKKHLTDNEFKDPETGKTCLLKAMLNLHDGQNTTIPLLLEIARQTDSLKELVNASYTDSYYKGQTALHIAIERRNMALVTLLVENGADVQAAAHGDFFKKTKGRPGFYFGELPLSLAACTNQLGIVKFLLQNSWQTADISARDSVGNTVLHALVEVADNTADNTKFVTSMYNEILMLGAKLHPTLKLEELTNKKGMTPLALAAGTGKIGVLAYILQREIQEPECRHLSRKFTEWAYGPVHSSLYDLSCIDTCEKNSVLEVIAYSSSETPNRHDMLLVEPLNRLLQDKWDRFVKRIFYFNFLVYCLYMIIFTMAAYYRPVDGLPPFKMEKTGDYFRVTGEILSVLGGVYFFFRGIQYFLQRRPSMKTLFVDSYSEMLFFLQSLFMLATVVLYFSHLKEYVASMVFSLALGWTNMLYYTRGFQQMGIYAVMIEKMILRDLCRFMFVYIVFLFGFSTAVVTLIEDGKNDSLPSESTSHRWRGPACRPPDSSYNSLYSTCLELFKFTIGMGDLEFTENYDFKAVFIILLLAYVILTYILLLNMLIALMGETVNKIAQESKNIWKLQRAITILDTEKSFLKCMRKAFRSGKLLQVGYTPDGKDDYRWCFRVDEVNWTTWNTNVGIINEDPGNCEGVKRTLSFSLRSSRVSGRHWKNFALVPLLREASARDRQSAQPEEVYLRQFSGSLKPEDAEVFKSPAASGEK
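Cells expressing TRPV1 were dye-loaded with Fluo-8 and read kinetically: 10 s baseline, 3 min after compound (agonist portion), then 2 min after EC20 capsaicin (allosteric enhancer portion). Calcium-bound dye fluorescence at 480/520 nm.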
gsp antag: antagonizes gsp, the McCune-Albright syndrome mutation. AID 624288. actives 0.4% (n = 340,000). gsp-mutant cells, cAMP HTRF, 30 min; control for the full effect not named in the record. Potency, µM (highest dose often 76.9 µM), without a hit: at the highest dose activity change, negative = inhibition, most hits filed as inhibitors; active = falling curve of any shape with a large fitted effect; inconclusive = falling curve, mostly with a smaller effect; inactive = flat or rising curve; cell line not stated here;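 further: intracellular cAMP measured with PDE inhibitor Ro 20-1724 present during compound exposure; potency means the concentration at half of the fitted maximal effect; on the % scale 0 is the no-effect control and ±100 the full control effect; nearly all actives have a fitted effect of over 65% in size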
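Measurement of cellular cAMP by homogeneous time-resolved fluorescence following a 30 min compound exposure at 37C. The PDE inhibitor […] was present throughout; the assay buffer was DPBS with 0.05% BSA and 0.005% Tween 20.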
The depositor's hits bear a star; ? = inconclusive; . = no result given; & = joins results of further samples; [ ] = remark or other dose.

The opening 2 records, to show the layout:
SMILES	ClpP mod	gsp ag	CtBP-E1A inh	Sfp inh	Menin MLL FP FL	TRPV1 potentiator	gsp antag
CC(C)C(=O)N1CCC(c2nc(-c3ccc(S(=O)(=O)N4CCN(C)CC4)cc3)no2)CC1	.	-28%	6	10%	0.4	6	2%
CC(C)(O)P(=O)(O)CCc1ccccc1	0.2%	-3%[15.4 µM]	9	10%	3.6	6	6%

The whole of this part, from the start:
SMILES	ClpP mod	gsp ag	CtBP-E1A inh	Sfp inh	Menin MLL FP FL	TRPV1 potentiator	gsp antag
CC(C)C(=O)N1CCC(c2nc(-c3ccc(S(=O)(=O)N4CCN(C)CC4)cc3)no2)CC1	.	-28%	6	10%	0.4	6	2%
CC(C)(O)P(=O)(O)CCc1ccccc1	0.2%	-3%[15.4 µM]	9	10%	3.6	6	6%
CNc1c(NS(=O)(=O)c2ccc(Br)cc2)c(=O)oc2ccccc12	0.1%	19%[15.4 µM]	25	0%	0.9	3	-21%
CCN(CC)CCCNC(=O)c1c(O)c2c([nH]c1=O)CCCC2	-7.0%	-27%	5	11%	2.2	21	5%
COc1ccc(/C=C(\NC(=O)c2ccc(Cl)cc2)C(=O)NCCCN2CCOCC2)cc1OC	.	7%[15.4 µM]	-5	24%	.	6	6%
c1ccc(-c2cn3c4c(sc3n2)CCCC4)cc1	-1.3%	-46%&1%[inhibitor]	-13&-3	-8%	5.1	-12	?
CCC1CCCCN1CC(=O)Nc1cc(OC)c(OC)cc1C#N (configuration not stated)	0.9%	5%	.	0%	-4.4	-1	5%
CCc1ccc2c(CN3CCc4ccccc43)cc(=O)oc2c1	2.8%	4%	-3	-5%	0.4	3	11%
CCOC(=O)CNc1nc(Cl)nc(Nc2ccc(Cl)cc2)n1	2.1%	?	1	8%	-0.6	-16	11%
CC(C)n1cc(C(=O)N2CCCC(N3CCN(c4cccc(Cl)c4)CC3)C2)cn1 (configuration not stated)	-2.0%	24%	-4	7%	.	0	-3%
CC(C)CC(=O)N1CCN(C(=O)c2ccc(F)cc2)CC1	.	0%	-20	17%	-2.0	3	8%
Cc1cc2oc(=O)cc(CN3CCCCC3)c2cc1C	-6.2%	12%	-2	1%	-7.5	-19	9%
COC(=O)c1ccccc1NC(=O)CN1C(=O)CSC1=O	-18%	12%	-8	-3%	-0.6	5	-1%
NC(=O)c1cc(S(=O)(=O)N2CCOCC2)cs1	-2.5%	0%	.	8%	.	27	-3%
COc1cccc(C(=O)N/N=c2\sc3ccccc3n2C)c1	0.5%	-9%	3	2%	8.3	5	-4%
O=C(NNC(=O)C1CCCN(S(=O)(=O)c2cccc(F)c2)C1)C1CC1 (configuration not stated)	.	-12%[15.4 µM]	-14	7%	-1.5	-14	14%
COc1cccc(C2C(C(C)=O)=C(O)C(=O)N2CCNCCO)c1 (configuration not stated)	.	.	.	16%	1.1	3	.
COc1ccc(C(=O)CN2Cc3ccccc3C2=N)cc1	-29%	-18%	.	7%	-1.8	-3	8%
COc1ccc(N(C)S(=O)(=O)c2cccc(C(=O)N3CCN(c4ccccc4)CC3)c2)cc1	.	9%[15.4 µM]	-5	.	.	12	?
CCOC(=O)c1nn(-c2ccc(F)cc2)cc1O	.	-3%[15.4 µM]	0	7%	1.8	24	4%
O=C(NCc1ccccc1F)c1cccc(S(=O)(=O)N2CCCCC2)c1	-4.3%	-21%	0	.	.	.	-7%
Cc1nnc(Nc2ccc3c(c2)OCO3)c2ccccc12	0.4%	-6%	-15	4%	-0.8	-22	-1%
COc1cccc2cc(C(C)=O)oc12	-3.3%	-4%[15.4 µM]	-9	8%	2.6	4	3%
CNCc1cc2ccc(C)cc2[nH]c1=O	-27%	-19%	1	7%	1.3	6	7%
Cc1csc(=O)n1CC(=O)Nc1ccc(S(C)(=O)=O)cc1	.	17%	4	.	.	.	6%
CCOc1ccc(CCNC(=O)COC(=O)c2ccc3c(c2)OCCO3)cc1OCC	-3.2%	7%	-15	.	.	8	4%
c1cc(C(c2nnnn2C2CCCCC2)N2CCN3CCCC3C2)ccn1 (configuration not stated)	-1.6%	3%	2	10%	-14	-3	6%
COc1ccc(S(=O)(=O)NCc2cccnc2)cc1C	0.2%	-4%[15.4 µM]	5	13%	-5.9	-3	-2%
Cc1nc(S/C(=C/c2ccc(-c3cccc(Cl)c3)o2)C(=O)O)n[nH]1	1.1%	11%	-2	45µM*	38[activator]	3	-22%
CCN(CC)C(=O)C1=C(C)N(Cc2ccc(C(C)(C)C)cc2)C(=O)C(CC(=O)NCc2cccc3ccccc23)C1 (configuration not stated)	-0.2%	-10%	-7	.	.	.	.
O=C(O)c1ccc(S(=O)(=O)NC2CCCCC2)cc1	-1.9%	-5%	-7	15%	3.7	22	-2%
Cc1onc(-c2ccccc2)c1C(=O)N1CCN(S(=O)(=O)c2ccccc2Br)CC1	.	-67%[inhibitor]	0	17%	3.7	-14	-2%
CC(c1ccon1)N(C)Cc1cn[nH]c1-c1ccc(-c2ccccc2)cc1 (configuration not stated)	-2.0%	0%	-13	-2%	8.0	11	-4%
CC(C)c1csc(CN2CCC(CCC(=O)NCC3CCCO3)CC2)n1 (configuration not stated)	-0.9%	-39%	-2	15%	.	-11	4%
Cc1nc(SCC(=O)NC2CCCC2)c2oc3ccccc3c2n1	-0.1%	11%	0	.	.	.	.
CCOC(=O)/C=C/C(=O)OCC(=O)Nc1ccc(Cl)cc1Cl	.	33%[15.4 µM]	2	-4%	-1.3	17	-3%
COc1cc(-c2nnc3sc(C4CCCCC4)nn23)cc(OC)c1OC	-3.7%	21%	-21	?	1.5	-7	5%
O=C(NCCCN1CCCC1=O)c1sc2ccccc2c1Cl	-1.5%	?	6	7%	.	0	-6%
COc1ccc(Cl)cc1C(=O)CSc1nnnn1C1CCCCC1	-0.6%	-36%[inhibitor]	17	-5%	9.6	6	?
C[C@@H](NC(=O)OC(C)(C)C)C(=O)NCC1CCC(C(=O)N[C@@H](Cc2ccccc2)C(=O)O)CC1 (some centres not stated)	-0.7%	?	.	4%	-0.4	-14	-1%
CN(CC(=O)Nc1cccc(F)c1)C(=O)CSc1ccc(Br)cc1	.	0%[15.4 µM]	-13	.	.	4	-17%
CC1(C)Cc2cccc(OCC(=O)NCCc3ccc(S(N)(=O)=O)cc3)c2O1	-3.7%	4%	-3	.	.	12	-12%
COc1cc(=O)n(C)c2c(O)cccc12	-3.1%	.	-15	-2%	-0.3	0	0%
N#CC12CCCCC1CC1CCCCC1(C#N)N2Cc1cccnc1 (configuration not stated)	-28%	-19%	-2	-7%	1.0	1	2%
c1ccc(-c2ccn3nnnc3n2)cc1	-15%	-24%	-2	16%	-0.1	6	7%
Cc1nc2ccc(NC(=S)NC3CCCCC3)cc2nc1C	6.9%	4%	.	-2%	-1.2	-5	-8%
CCOc1ccc(-c2nnc(-c3snc(-c4ccc(F)cc4)c3N=CN(C)C)o2)cc1	28µM*	-5%	7	-3%	-0.6	-12	-26%
CCCCn1c(SCC(=O)c2cc(OC)ccc2OC)nc2cc(S(N)(=O)=O)ccc21	36%	-34%[inhibitor]	5	-9%	0.3	-17	-7%
Cc1ccc(-c2nc(NCc3ccco3)n(S(C)(=O)=O)n2)cc1	.	-11%[15.4 µM]	-1	-2%	5.1	-1	0%
COc1cccc(C=NCCCN=Cc2cccc(OC)c2O)c1O	-0.3%	-19%	0	3%	0.9	-6	?

New compounds follow:
SMILES	ClpP mod	gsp ag	CtBP-E1A inh	Sfp inh	Menin MLL FP FL	TRPV1 potentiator	gsp antag
COc1ccc(C(=O)C2CCCN(C(=O)c3n[nH]c4c3CCCC4)C2)cc1OC (configuration not stated)	.	-18%	7	7%	1.4	11	4%
CC(C)(C)N(Cc1ccccc1)C(=O)c1ccncc1	-2.9%	-21%	-7	23%	1.5	2	3%
COc1ccc(NC(=O)c2ccc3c(c2)C(=O)N(Cc2cccnc2)C3=O)c(OC)c1	-1.6%	10%	7	-2%	-0.8	-4	3%
CC1CCCCC12NC(=O)N(CC(=O)Nc1ccc(S(=O)(=O)N3CCOCC3)cc1)C2=O (configuration not stated)	-4.0%	?	-4	15%	5.5	5	-3%
CC1(C)CC(=O)C2=C(C1)Nc1ccccc1NC2c1ccc([N+](=O)[O-])cc1 (configuration not stated)	.	-14%	-4	.	.	.	-18%
CC(CNC(=O)CCc1nnc2ccc(N3CCC4(CC3)OCCO4)nn12)c1ccccc1 (configuration not stated)	-0.2%	?	2	8%	.	3	1%
CC1(C)CC(C)(O)N(Cc2ccccc2)C(=S)N1 (configuration not stated)	-0.3%	-31%[inhibitor]	-16	6%	1.4	4	-7%
O=[N+]([O-])c1ccccc1N(CC1CO1)S(=O)(=O)c1ccccc1 (configuration not stated)	.	-13%	4	14%	-1.4	18	12%
COc1ccc(CNC(=O)CCS(=O)(=O)c2ccc3c(c2)NC(=O)C(C)S3)cc1 (configuration not stated)	-2.0%	?	-7	9%	-1.0	4	6%
COc1ccccc1C(=O)Nc1cc(Cl)ccc1O	-6.6%	?	0	-10%	-1.4	2	3%
CCOc1ccccc1-n1nnnc1SCC(=O)N(C)C1CCS(=O)(=O)C1 (configuration not stated)	-1.6%	-103%[inhibitor]	-6	.	.	.	.
CCC(O)C1CCN(Cc2cn(Cc3ccccc3)nc2-c2cc3ccccc3o2)CC1 (configuration not stated)	-14%	-5%	.	-10%	0.0	-15	-1%
CCCc1[nH]n(-c2ccc([N+](=O)[O-])cc2)c(=O)c1C=NCCc1c[nH]c2ccccc12	-6.4%	-19%	-17	?	-0.2	14	-10%
CC1CCCC(C)N1C(=O)Cc1ccccc1 (configuration not stated)	-2.8%	-60%[inhibitor]	-11	10%	-0.4	0	8%
Cc1cc(OCC(O)CN2CCN(CCO)CC2)ccc1C(C)C (configuration not stated)	1.0%	23%	-1	-70%	1.9	-1	3%
CCC(=O)c1ccccc1OCCN1CCN(CC)CC1	-1.1%	29%	.	?	-1.2	2	9%
CCN(Cc1cc(OC)c(OC)c(OC)c1)C(=S)Nc1cccc(SC)c1	-1.1%	0%[15.4 µM]	-4	29%	2.3	23	-4%

Source: PubChem BioAssay
